Screening results as filed in PubChem BioAssay.
PV pol inh: poliovirus RdRp elongation inhibitors, primary screen, biochemical, fluorescence polarization, total intensity. poliovirus polymerase elongation; hits give low values. AID 588519, 2011. hit rate 0.66% among 150,000. % elongation, % (compound at 16.7 µg/mL); in the data active = % elongation below about 90%; note: some results filed as inactive read as strong as hits
Target sequence (P03300 1749-2209 limits assumed): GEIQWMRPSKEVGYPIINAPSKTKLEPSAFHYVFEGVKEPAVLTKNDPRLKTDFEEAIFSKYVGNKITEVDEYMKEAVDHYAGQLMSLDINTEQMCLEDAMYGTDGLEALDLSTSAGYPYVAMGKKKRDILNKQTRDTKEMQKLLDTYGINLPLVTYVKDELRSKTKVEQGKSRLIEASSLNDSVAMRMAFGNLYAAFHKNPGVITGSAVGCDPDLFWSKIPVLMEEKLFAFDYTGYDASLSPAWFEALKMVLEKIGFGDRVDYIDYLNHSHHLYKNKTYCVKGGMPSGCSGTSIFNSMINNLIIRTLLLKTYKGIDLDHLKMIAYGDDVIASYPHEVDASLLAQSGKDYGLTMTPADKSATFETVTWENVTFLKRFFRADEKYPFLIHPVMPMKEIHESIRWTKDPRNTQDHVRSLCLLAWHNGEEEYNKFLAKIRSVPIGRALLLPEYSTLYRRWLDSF
Mtb MenB inh: M. tuberculosis MenB inhibitors, primary screen, biochemical, absorbance; 1,4-dihydroxy-2-naphthoyl-CoA synthase (Mycobacterium tuberculosis (strain ATCC 25618 / …; MenB enzyme assay, absorbance read-out; some hits fall short of the stated cut; inhibition, %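 (about 12 µg/mL by stock and volumes)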; hit rate 0.43% among 100,000; AID 540299, 2011;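 active = mean of two replicates above 30%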;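 note: 0% = no compound and 100% = wells with inactive enzyme; the first replicate is given; strong numbers were not always called active; inactives centre near -10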
MbtI inh: MbtI salicylate synthase inhibitors, primary screen, biochemical, fluorescence intensity | P9WFX0 | purified MbtI enzyme, fluorescence intensity read-out | inhibition, %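 (about 17 µg/mL by stock and volumes)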 | hit rate 0.89% among 100,000;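 active = above 50% in both replicates, above 80% if mildly self-fluorescent; inactive = the rest, strongly fluorescent compounds included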;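 note: 0% = mean of negative and 100% = mean of positive controls; one replicate is shown; some compounds called inactive have numbers as strong as hits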
Target sequence (P9WFX0 whole entry, looked up): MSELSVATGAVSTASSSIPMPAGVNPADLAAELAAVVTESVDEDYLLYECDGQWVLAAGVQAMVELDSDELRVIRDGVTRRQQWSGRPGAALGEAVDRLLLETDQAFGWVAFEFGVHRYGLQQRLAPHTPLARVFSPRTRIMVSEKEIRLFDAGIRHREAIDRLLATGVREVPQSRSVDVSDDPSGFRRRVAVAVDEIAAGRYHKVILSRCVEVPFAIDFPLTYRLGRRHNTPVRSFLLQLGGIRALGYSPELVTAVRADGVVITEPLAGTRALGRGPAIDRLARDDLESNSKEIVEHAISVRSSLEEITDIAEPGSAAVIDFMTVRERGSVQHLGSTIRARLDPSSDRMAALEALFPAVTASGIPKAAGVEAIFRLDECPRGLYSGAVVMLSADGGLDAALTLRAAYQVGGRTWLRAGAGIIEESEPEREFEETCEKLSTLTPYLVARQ
PV pol inh intensity: also measured in PV pol inh; calls as there; % elongation; measured here: total intensity read-out; formula for this scale not given here;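 total fluorescence in place of polarization; lower means less elongation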
Active calls of the source: *; · = no result given; & = joins results of further samples; ! = not active in a repeat.

SMILES	PV pol inh	PV pol inh intensity	Mtb MenB inh	MbtI inh
COc1cccc(NC(=O)c2cc3cc4ccc(C)cc4nc3o2)c1	98	103	5	2
CCCCCC1/C(=N/OC(C)=O)CCC1CC(=O)OC (stereo not drawn)	102	109	0	-2
N#CCC(=O)N/N=C/c1ccc(OC2CSC2)cc1	99	103	-1	8
CCCN1C(=O)/C(=N\OCC(=O)N2N=C(c3ccc(Cl)cc3)CC2c2ccco2)c2ccccc21 (stereo not drawn)	106	109	-18	-8
O=C(c1ccc(F)cc1)n1cc(Cl)cn1	100	109	-6	·
CCC(=O)N1CCN(c2ccc(N3CCOCC3)nn2)CC1	99	102	6	-54
Cn1nnnc1SCC(=O)c1ccc(Br)s1	108	109	-16	5
CN(C)c1ccc(-c2n[nH]c3c2C(=O)CCC3)cc1	106	103	-15	·
Cc1cc(NC(=O)COC(=O)C2CSC3(C)CCC(=O)N23)no1 (stereo not drawn)	104	107	-17	-3
CCCNC(=O)C1=C(C)C(=O)OC12CCN(S(C)(=O)=O)CC2	101	101	-16	-6
CCN(CC)c1ccc2c(c1)oc(=O)c1c(Cl)cc(=O)oc12	43	243	-22	·
COc1cc(OC)c(NC(=O)c2c(C)nn(-c3ccccc3)c2-n2cccc2)cc1Cl	103	105	4	9
CCSc1nc2c(c(=O)n1C)C1(CCCCC1)Cc1ccccc1-2	105	107	-3	·
Cc1ccc2c(CC(=O)NCC(=O)Nc3c(C)cccc3C)coc2c1	100	94	-24	14
c1ccc(CC2COC(c3cccn3Cc3ccccc3)=N2)cc1 (stereo not drawn)	100	103	-17	-5
CCCn1c(C)cc(C(=O)CN(C)S(=O)(=O)c2ccc(F)cc2)c1C	104	109	-18	-6
CN1CCOCCOCCOCC1	99	98	10	0
CSc1sc(-c2nc(C(C)(C)C)cs2)c2c1C(=O)CCC2	108	112	-9	-8
CC(OC(=O)Cn1ccc(C(F)(F)F)n1)c1nc2ccccc2c(=O)[nH]1 (stereo not drawn)	104	109	-19	-16
O=c1[nH]c2ccccc2nc1C(=S)N1CCOCC1	97	97	-13	·
O=C(O)CC1C(=O)NCCN1C1Cc2ccccc2C1 (stereo not drawn)	100	100	-7	-10
NC(=S)N/N=C/c1nc2ccccc2n1Cc1ccccc1	97	104	-31	4
CCCN(C)S(=O)(=O)c1ccc(I)cc1	99	101	-10	0
NCCC1CCCO1 (stereo not drawn)	103	100	-27	2
Cc1cccc(C)c1NC(=O)CNc1ccccc1	101	103	-15	-21
SMILES	PV pol inh	PV pol inh intensity	Mtb MenB inh	MbtI inh
O=C(c1ccc(F)cc1)N1CCCc2ccccc21	101	102	-8	2
O=C(Nc1ccc(S(=O)(=O)c2ccc(NC(=O)c3ccco3)cc2)cc1)c1ccco1	101	103	-22	1
O=S(=O)(c1ccc(F)cc1)N1CCN(S(=O)(=O)c2cccs2)CC1	100	102	-5	-12
CCCCOc1cccc(OCCCC)c1Nc1cc(C)on1	100	101	-14	-2
N#Cc1ccc(COC(=O)CCC(=O)c2ccc(F)cc2)cc1	102	104	·	-3
C/C(N)=C(/C#N)C(=O)CSc1nnc(-c2cccnc2)n1C1CCCCC1C (stereo not drawn)	106	106	-29	13
c1coc(-c2cc(-c3nc4c5ccccc5ncn4n3)n[nH]2)c1	105	103	-31	89
CCCCN(C)S(=O)(=O)c1ccc2c(c1)CC(C)N2C(C)=O (stereo not drawn)	100	102	-11	-5
O=S(=O)(c1ccc(OCC(O)CN2CCCCC2)cc1)N1CCOCC1 (stereo not drawn)	110	101	-9	12
O=C1OCCC1Sc1nc(-c2ccccc2)cs1 (stereo not drawn)	99	103	9	-3
NC(=O)C1CCN(C(=O)NC2CC(=O)N(c3ccc(Cl)cc3)C2)CC1 (stereo not drawn)	101	101	-7	-7
CCn1c2ccccc2c2nnc(SCC(=O)Nc3nccs3)nc21	101	105	2	-2
Cc1ccc(N(C(C)C(=O)N(C)C)S(C)(=O)=O)cc1 (stereo not drawn)	101	105	-31	-8
CN(C)CCNC(=O)c1ccc2c(=O)n(Cc3ccc4c(c3)OCO4)c(=S)[nH]c2c1	100	95	-9	-5
N#Cc1ccccc1S(=O)(=O)N1CCN(Cn2c(Cc3ccccc3)nc3ccccc32)CC1	98	103	-5	-4
Cc1ccc(NC(=O)CSc2nc3ccsc3c(=O)n2Cc2ccccc2F)cc1Cl	103	102	-6	-9
c1ccc(Cn2c(SCC3CCCCO3)nnc2-c2ccco2)cc1 (stereo not drawn)	99	105	5	3
Cc1ccc(NC(=O)Nc2nnc(N3C(C)CCCC3C)s2)cc1C (stereo not drawn)	104	105	-3	2
CC1(C)S[C@@H]2[C@H](NC(=O)C3(N)CCCCC3)C(=O)N2[C@H]1C(=O)O	101	99	-2	8
N#Cc1c(N)nc2c(c1-c1ccccc1)CCC2	108	113	-20	·
O=C(Cn1nc(Cc2ccncc2)c2ccccc2c1=O)N1CCCC1	99	102	-6	0
CN(CC(=O)Nc1ccc(N2CCOCC2)cc1)c1nc(-c2ccccc2)nc2ccccc12	100	105	-12	-7
CCOC(=O)c1[nH]c(CBr)c(C(=O)OCC)c1C	104	107	·	-11
CC1=C(CC(=O)O)c2cc(F)ccc2/C1=C\c1ccc(S(C)=O)cc1 (stereo not drawn)	99	100	8	-15
CCC(C)NS(=O)(=O)c1c[nH]c(C(=O)OC)c1 (stereo not drawn)	99	100	-3	-28
SMILES	PV pol inh	PV pol inh intensity	Mtb MenB inh	MbtI inh
Fc1ccc(OC2OCCOC2Oc2ccc(F)cc2)cc1 (stereo not drawn)	101	104	12	1
c1ccc(NCn2nnc3ccccc32)cc1	100	97	·	6
CCOC(=O)c1c(C)c(C(=O)Nc2ccc(C(C)C)cc2)c(C)n1C	101	98	-17	2
Cc1noc(C(F)(F)F)c1C(=O)O/N=C(\N)c1ccc(C(F)(F)F)cc1	102	103	9	1
COc1ccc(OC)c(N=C2SCCCN2C(=O)c2cc(=O)[nH]c3ccccc23)c1	103	107	-6	-9
COCCCNc1nc2ccccc2[nH]c1=O	99	103	10	122
Cc1cc(C)c2c(CC(=O)NN3CCN(C)CC3)coc2c1	103	104	-10	-23
O=C(C(Cc1ccccc1)n1cccc1)N1CCCC1 (stereo not drawn)	100	100	-16	-1
C=CCn1c(COc2ccc(OC)cc2)nnc1SC(C(=O)NC(=O)NC)c1ccccc1 (stereo not drawn)	106	108	-3	1
CC(C)c1cccc2c1OC(C(C)C)C(=S)N2CC(=O)O (stereo not drawn)	104	104	-8	1
COc1ccc(-c2nc(CSCC(=O)N(C)Cc3ccccc3)c(C)o2)cc1OC	103	105	-30	62
COC(=O)C1=C(C)NC(C)=C(C(=O)OC)C1c1ccccc1[N+](=O)[O-]	101&101&104&102	103&102&102&98	-4&-16&-10	79*!
COCc1nc2c([nH]1)c(=O)n(C)c(=O)n2CC(C)C	99&101	100&99	-5	-15
Nc1ccccc1CN1CCCC1	101	103	-8	-1
CCCc1nc(C)cc(N2CCN(C)CC2)n1	103	103	3	15
c1nnc(-c2ccc3c(c2)OCO3)o1	106	109	8	106
O=C(CSc1ccc(Br)cc1)c1ccc(Cl)s1	102	102	·	20
Cn1cc(S(=O)(=O)N2CCOCC2)cc1C(=O)N1CCN(c2cccc(C(F)(F)F)c2)CC1	104	105	-12	-3
Cc1cccc(OCC(=O)N2CCCc3ccccc32)c1	101	105	-14	-2
O=C(c1cccnc1NCCc1ccccc1)N1CCCC1	103	100	-59	30
COc1ccc(N=Cc2ccc3c(c2)OCCO3)cc1	106	107	·	-18
CN(N)c1nc(-c2ccccc2)cc(-c2ccccc2)n1	102	101	-157	-8
CCC1(C)Cc2c(sc3nc4n(c(=O)c23)CCCS4)CO1 (stereo not drawn)	100	105	6	1
Fc1c(F)c(-n2cccn2)c(F)c(F)c1-c1c(F)c(F)c(-n2cccn2)c(F)c1F	100	103	-21	-4
CCCOc1ccc2oc(=O)c3c(c2c1)CCCN3C(=O)CN1CC(C)CC(C)C1 (stereo not drawn)	102	101	-18	6
SMILES	PV pol inh	PV pol inh intensity	Mtb MenB inh	MbtI inh
O=C1NC(=Nc2ccccc2)S/C1=C\c1ccc(C(=O)O)cc1	99	103	-7	16
CC(=O)Oc1ccc(N(C(C)=O)S(=O)(=O)c2cccs2)c(C)c1	103	105	-5	16
C=CCn1c(Cc2ccccc2)nnc1SCC(=O)N1CCc2ccccc21	102	102	4	-8
Cc1ccc(NC(=O)CSc2nc(=O)cc(N)n2Cc2ccco2)cc1	102	106	0	3
O=C1Nc2cc(C(=O)N3CCCC3)ccc2S/C1=C\c1ccccc1	102	99	-21	-3
CCOC(=O)c1oc2ccccc2c1Cn1ncc(Cl)c(Cl)c1=O	108	118	-16	8
O=C(/C=C/c1ccco1)OCCN1C(=O)c2ccccc2C1=O	102	99	0	22
Cc1nn2c(CN(C(=O)c3ccco3)c3ccccc3)nnc2c2ccccc12	103	105	-1	41
CCc1ccc(-c2csc(Nc3ccc(S(=O)(=O)Nc4cc(OC)nc(OC)n4)cc3)n2)cc1	102	103	-4	-189
CNC(=O)c1ccccc1NC(=O)CC1(CC(=O)O)CCCCC1	98	103	-15	2
O=c1c2cc(NC(=S)N3CCCCCC3)ccc2nc2n1CCCCC2	103	100	-12	-2
CSc1ccc(/C=C(\C#N)C(=O)NC2CCCCC2)cc1	103	105	20	-4
NC1=NC2(CCSC2)n2c(nc3ccccc32)N1 (stereo not drawn)	100	102	15	9
Cc1nn(Cc2ccccc2)c(C)c1C(=O)OCC(=O)NCc1ccco1	104	108	-26	-15
Cc1[nH]c2ccccc2c1CCN1C(=O)CCC1=O	109	117	-4	·
CC(=O)NCCN1C(=O)S/C(=C\c2cccs2)C1=O	104	99	-64	10
CCOC(=O)c1c(NC(C)=O)sc2c(NC(C)=O)cccc12	103	102	24	-2
N#C/C(=C\c1ccc(-c2ccc(S(=O)(=O)N3CCOCC3)cc2)o1)C(=O)NC1CC1	·	·	-232	-1
Cc1ccccc1CNCCc1c[nH]c2ccccc12	98	103	-4	·
CCOc1ccc2nc(SCC(=O)NC3CC3)sc2c1	99	100	-3	5
COc1ccccc1NC(=O)C1CCN(C(=O)c2ccccc2)CC1	100	102	9	-7
COc1ccc(CCNS(=O)(=O)c2c(C)cc(C)c(-n3cnnn3)c2C)cc1OC	102	101	-24	-8
Cn1c(Cn2c(=O)sc3ccccc32)nnc1SCC(=O)Nc1ccc2c(c1)OCO2	100	102	-25	7
CN1CCN(c2nsc(NO)c2Nc2ccc(Br)cc2)CC1	98	102	-154	·

Entries from the list above with two or more sulfur atoms (13):
SMILES	PV pol inh	PV pol inh intensity	Mtb MenB inh	MbtI inh
Cn1nnnc1SCC(=O)c1ccc(Br)s1	108	109	-16	5
CSc1sc(-c2nc(C(C)(C)C)cs2)c2c1C(=O)CCC2	108	112	-9	-8
O=S(=O)(c1ccc(F)cc1)N1CCN(S(=O)(=O)c2cccs2)CC1	100	102	-5	-12
O=C1OCCC1Sc1nc(-c2ccccc2)cs1 (stereo not drawn)	99	103	9	-3
CCn1c2ccccc2c2nnc(SCC(=O)Nc3nccs3)nc21	101	105	2	-2
Cc1ccc(NC(=O)CSc2nc3ccsc3c(=O)n2Cc2ccccc2F)cc1Cl	103	102	-6	-9
O=C(CSc1ccc(Br)cc1)c1ccc(Cl)s1	102	102	·	20
CCC1(C)Cc2c(sc3nc4n(c(=O)c23)CCCS4)CO1 (stereo not drawn)	100	105	6	1
CC(=O)Oc1ccc(N(C(C)=O)S(=O)(=O)c2cccs2)c(C)c1	103	105	-5	16
CCc1ccc(-c2csc(Nc3ccc(S(=O)(=O)Nc4cc(OC)nc(OC)n4)cc3)n2)cc1	102	103	-4	-189
CC(=O)NCCN1C(=O)S/C(=C\c2cccs2)C1=O	104	99	-64	10
CCOc1ccc2nc(SCC(=O)NC3CC3)sc2c1	99	100	-3	5
Cn1c(Cn2c(=O)sc3ccccc32)nnc1SCC(=O)Nc1ccc2c(c1)OCO2	100	102	-25	7
